Vif A3G: inhibitors of Vif binding to APOBEC3G peptide, primary screen, biochemical, TR-FRET, GST-Vif 1-94, biotin-A3G peptide, dose response retest (AID 1117319); TR-FRET GST-Vif / biotin-A3G peptide binding; higher % means a stronger effect; test concentration not given here; strong numbers were not always called active; inhibition, %, or IC50 in µM where a hit was titrated; hit rate 0.57% among 260,000;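 active = above the screen mean plus three standard deviations and confirmed in dose response; inconclusive = results disagree or hit not tested in dose response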;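 note: Vif residues 1-94 fused to GST binding biotinylated APOBEC3G peptide 110-148; 0% = full assay without inhibitor and 100% = GST in place of GST-Vif; retest series ran down from 100 µM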
MLL AF4-AF9 inh: MLL-AF4/AF9 protein interaction inhibition. inhibition, % at 10 µM. AID 651704. P42568. hit rate 0.47% among 350,000. AlphaScreen, biotin-AF4 peptide binding to FLAG-AF9;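 active = every replicate reaching a set inhibition limit, whatever the replicate mean, cut at about 25% in these data; inconclusive = mean inhibition reaches that limit but some replicates miss it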;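 note: 0% = plate neutral control median and 100% = total signal loss; the record names both 10 and 1 µM as test concentration; the first replicate is given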
Target sequence (P42568 whole entry, looked up): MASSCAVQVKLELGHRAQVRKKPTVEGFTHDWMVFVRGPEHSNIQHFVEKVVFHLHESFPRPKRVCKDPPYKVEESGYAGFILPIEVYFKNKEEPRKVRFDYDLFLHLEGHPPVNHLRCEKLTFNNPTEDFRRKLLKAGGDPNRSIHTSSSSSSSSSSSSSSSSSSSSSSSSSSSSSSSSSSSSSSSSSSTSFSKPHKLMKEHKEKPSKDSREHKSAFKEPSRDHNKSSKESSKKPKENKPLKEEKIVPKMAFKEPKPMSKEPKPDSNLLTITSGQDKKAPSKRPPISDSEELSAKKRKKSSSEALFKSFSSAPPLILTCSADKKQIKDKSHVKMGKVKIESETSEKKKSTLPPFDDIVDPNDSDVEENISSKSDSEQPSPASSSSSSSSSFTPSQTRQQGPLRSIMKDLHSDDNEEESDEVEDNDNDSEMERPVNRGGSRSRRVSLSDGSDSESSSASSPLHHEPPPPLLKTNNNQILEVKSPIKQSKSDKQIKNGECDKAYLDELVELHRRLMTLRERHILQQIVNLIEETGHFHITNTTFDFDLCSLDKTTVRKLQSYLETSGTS
T cruzi repl: T. cruzi replication inhibition | hit rate 1.4% among 300,000 | T. cruzi beta-gal in NIH3T3, luminescence, 90 h | inhibition, % (concentration not given with the values);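 active = mean inhibition across valid replicates above about 55%, limit read from the data; inconclusive = mean below that limit but half or more replicates reach it; inactive = mean below it, under half of replicates reach it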;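 note: signal also drops with host cell toxicity which is not excluded here; 0% = plate median of DMSO wells and 100% = zero luminescence signal; higher percent means less beta-gal luminescence so fewer parasites; stock transfer was 50 nL into about 50 µL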
RanGTP-Impb inh: disruptors of Ran-importin-beta complex formation – biochemical, FRET, CFP-Ran, YFP-importin-beta, homogeneous, primary screen; hit rate 1.1% among 300,000; inhibition, % (concentration not given with the values); cell-free CFP-Ran/YFP-importin-beta FRET ratio;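 active = most replicates above 15%; inconclusive = exactly half above 15%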;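 note: 0% = DMSO wells and 100% = Ran loaded with GDP instead of GTP; wells of about 40 µL received 100 nL stock; the first replicate is given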
Calb FLC: affects C. albicans growth with fluconazole; hit rate 0.57% among 300,000; growth inhibition, % (test concentration not listed); AID 1979; C. albicans CaCi-2 (fluconazole-resistant clinical isolate) + fluconazole, Alamar Blue growth, 48 h;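 active = most replicates above 75%; inconclusive = exactly half above 75%; inactive = most below 75%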;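 note: all wells also contain fluconazole at 8 µg/ml as a sub-toxic cotreatment; 0% = median of DMSO wells and 100% = median of geldanamycin control wells; wells of about 8 µL received 7.5 nL stock; the first replicate is given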
Beta cell apopt: beta cell apoptosis inhibition; protection from apoptosis, % (test concentration not listed); AID 435005; INS-1E cytokine-induced death, ATP luminescence, 48 h; percent of positive-control rescue, neutral wells zero; hit rate 0.8% among 300,000;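 active = all replicates at 75% or more, or half of them and the mean; inconclusive = half reach 75% but not the mean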;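 note: 0% = cytokine-treated negative control wells and 100% = positive control rescue; higher means more ATP so stronger rescue from cytokine killing; wells of about 40 µL received 100 nL stock; the first replicate is given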
A1 inh: inhibitors of the anti-apoptotic protein A1, read as caspase activation. MEF A1-2A-BIM cells, Caspase-Glo 3/7 luminescence, 3 h; percent of clofoctol response, vehicle zero. caspase activation, % (test concentration not listed). hit rate 0.066% among 330,000;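 active = over half of replicate activation scores above 10%, or exactly half above 10 with the replicate mean above 10; inconclusive = replicate mean below 10 yet half the replicates above 10; inactive = over half of replicates below 10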;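 note: wells of about 30 µL received 50 nL stock; many hits fall short of the cut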
LANA-H2B inh: blocks KSHV LANA binding to histone H2A/H2B; Q9QR71; hit rate 0.6% among 320,000; cell-free LANA-H2A/H2B peptide, fluorescence polarization; AID 2629; inhibition, % (test concentration not listed); in the data active = inhibition mostly above about 10%, no sharp cut-off; inactive = mostly below about 6.7%;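 note: stock transfer was 7.5 nL into about 10 µL; 0% = median of vehicle wells and 100% = median of positive control wells; one replicate is shown; the record names a cut of 25% in any replicate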
Starred values were filed as active, the others as inactive; u = inconclusive; x = no result given; & = joins results of further samples.

Compound,Vif A3G,MLL AF4-AF9 inh,T cruzi repl,RanGTP-Impb inh,Calb FLC,Beta cell apopt,A1 inh,LANA-H2B inh
Cc1cccc(NC(=O)CN2CCN(CC(=O)Nc3cccc(C)c3)CC2)c1,7%,x,6,3.4,1,-3,0.3,-2.2
CSc1ccccc1C(=O)Nc1cccc([N+](=O)[O-])c1C,24%,-5.2,0,-3.7,6,-3,0.1,-0.8
O=C(CCc1ccccc1)N1CCN(CCO)CC1,7%,-12,-7,-2.7,-4,-1,-0.5,4.9
CCOC(=O)c1ccc(S(=O)(=O)NNC(=O)COc2ccc(C)cc2)cc1,-13%,-5.0,9,1.4,5,1,-0.2,-2.5
COc1ccc(OC)c2nc(-c3ccc4c(c3)OCO4)ccc12,x,-0.6,0,-4.2,-8,5,-0.4,4.2
CCc1ccc(C(=O)N/N=C/c2ccc(Cl)cc2Cl)nc1,x,x,26,0.8,-18,5,-0.9,40*
CC(=O)Nc1cccc(-c2csc(Nc3ccccn3)n2)c1,25%,x,-11,1.2,13,5,-5.6,-0.9
CCc1nnc(NC(=O)c2ccc(Cl)c(S(=O)(=O)N3CCc4ccccc4C3)c2)s1,x,-0.9,0,-0.8,-6,-1,0.7,6.6
CC(OC(=O)c1nsc(Cl)c1Cl)C(=O)NCc1ccco1 (stereo not given),-1%,x,3,-0.3,0,1,0.6,0.5
O=C(COC(=O)C1CCN(c2ccc(C(F)(F)F)cn2)CC1)NCc1ccc(F)cc1,-7%,-1.8,-7,2.4,10,1,-0.1,-4.4
CCOC(=O)C1CCN(CCC(=O)Nc2ccc(Br)c(C)c2)CC1,x,2.6,16,5.5,22,-2,-0.6,-7.9
CCN(CC)C(=O)Cn1c(=O)oc2ccccc21,-7%,-1.9,-9,-0.5,-7,-8,0.5,-3.7
O=C(c1ccccc1O)N1CCOCC1,-2%,12,-2,3.1,8,-6,-0.2,0.1
O=C(NS(=O)(=O)Nc1ccccc1)C1=C(N2CCCC2)COC1=O,x,-55,x,x,x,-4,-0.2,1.7
Nc1nc(SCC(=O)NCc2ccc3c(c2)OCO3)n[nH]1,22%,-3.2,-3,0.8,-12,-10,0.1,-0.8
O=C(CNC(=S)NC(=O)c1ccc(F)cc1)c1ccccc1,15%,6.5,-11,u,-8,-4,-1.1,5.0
COC(=O)CC1C(=O)NCCN1C(=O)c1ccc(S(=O)(=O)N2CCOCC2)cc1 (stereo not given),1%,-2.4,3,u,-22,-7,0.6,-6.3
COc1ccc(/C=N/NC(=O)c2ccc(N(C)S(=O)(=O)c3ccccc3)cc2)c(OC)c1,-16%,1.2,-17,u,1,-4,-0.7,0.3
COc1cccc(CNc2ccc(C(=O)O)cc2)c1OCc1ccccc1,1%,-1.3,9,-1.6,9,-3,1.8,1.0
CCOC(=O)c1ccc(-n2c(CN3CCC(O)CC3)nc3ccc([N+](=O)[O-])cc3c2=O)cc1,u,5.0,-8,5.8,1,-1,0.5,-1.1
O=C(CSc1ccc(Cl)cc1)Nc1cccc(-c2nc3ncccc3o2)c1,-13%,x,-3,-1.3,9,-2,-0.4,-2.2
Nc1c(-c2ccc(Cl)cc2)nnn1-c1ccccc1,0%,x,-2,-0.9,-5,x,-3.6,-2.8
CCOc1ccc(/C=C/C(=O)OCC(=O)Nc2cccc(S(=O)(=O)N3CCCC3)c2)cc1,-12%,0.2,x,x,x,-7,0.9,3.3
COc1cccc(C2=NN(C(=O)c3ccco3)C(O)(C(F)(F)F)C2)c1 (stereo not given),15%,-3.2,1,-1.6,28,10,0.5,2.3
COc1cccc2nc3cc(C)c(C)cc3nc12,u,-7.0,-12,-10,2,55,-8.8,1.9
CC(C)OCCCNC(=O)C1CC(=O)N(CCc2ccccc2)C1 (stereo not given),-2%,-1.6,-12,5.4,0,-10,0.1,0.6
CN(Cc1ccccc1)/C(=N/O)c1cccc(Cl)c1,2%,-1.8,-6,1.3,9,-2,0.6,-0.6
O=C(O)Cc1csc(NC(=O)c2ccco2)n1,6%,x,0,-3.8,5,2,-0.2,2.3
CC(C)C1NC2(C(=O)c3ccccc3C2=O)C2C(=O)N(c3ccc(F)cc3)C(=O)C12 (stereo not given),-1%,x,4,-61,-2,-4,2.1,3.4
CCn1cc(C(=O)NCCc2ccccc2)c(=O)c2cc(S(=O)(=O)N3CCCC3)ccc21,-5%,1.3,38,7.4,4,3,0.7,1.1
CC(N1CCOC1=O)S(=O)(=O)c1ccccc1 (stereo not given),8%,x,7,-3.6,-13,-5,1.0,1.4
O=C(Nc1ccc(Cl)cc1)c1ccc2c(c1)S(=O)(=O)c1ccccc1C2=O,x,1.6,0,-2.1,-13,-3,-0.2,2.3
CC(C)[C@H](NC(=O)N1CCn2c1nc1ccccc12)C(=O)N[C@@H](C(=O)O)c1ccccc1,x,-0.3,-14,0.2,2,-5,0.0,1.9
O=C(Cc1ccc(Cl)cc1)Nc1ccc(N2CCN(C(=O)c3ccco3)CC2)cc1,8%,x,1,-2.0,2,-5,-1.0,-4.1
CC(C)CN(CCNC(=O)CN1C(=O)COc2ccc(S(=O)(=O)N3CCC(C)CC3)cc21)CC(C)C,x,0.4,4,-2.8,-1,-7,0.8,-2.5
Oc1ccc(N=Nc2ccc3c(c2)OCCO3)c2ncccc12,-8%,-12,68*,-5.3,89*,96*,-4.0,-3.2
Cc1nnc(SCCCn2c(N3CCN(c4ccccc4)CC3)nc3c2c(=O)[nH]c(=O)n3C)s1,71%&-2%,x,x,x,18,4,0.1,2.2
Nc1cc(N)nc(SCC(=O)NNC(=O)c2ccc(Cl)cc2)n1,3%,x,-22,1.5,-1,-10,-1.8,-0.8
O=C(CNC(=O)c1ccc(Br)o1)NC1CCCCC1,-3%,-0.2,-17,u,6,x,0.4,2.1
CS(=O)(=O)NCCNc1cc(Cl)ccc1[N+](=O)[O-],12%,-0.4,18,-4.7,1,x,-0.1,0.3
COCCN1C(=O)/C(=C2/C(=O)N(CC(=O)Nc3ccccc3Cl)c3ccccc32)SC1=S,x,-0.3,-19,0.1,0,11,-0.4,1.7
CC1(C)C2CCC1(CS(=O)(=O)NC1CCCC1)C(=O)C2 (stereo not given),-4%,-0.9,-10,-1.3,-9,-10,0.0,5.0
COc1ccc(Nc2c(-c3ccco3)nc3cccc(C)n23)cc1,-4%,13,-6,0.6,3,-7,-0.3,3.7
CCN(CC)CCCn1c2c(c(SCC(=O)Nc3nc4ccccc4s3)nc1=O)CCC2,2%,2.4,-9,0.5,4,-12,-0.1,-0.8
Cc1ccc(C(=O)CSc2ccccn2)cc1,72%,x,-14,0.0,-2,-2,-0.3,-0.4
Cc1ccc(C2(C)NC(=O)N(CC(=O)N3c4ccccc4NC(=O)CC3C)C2=O)cc1 (stereo not given),x,1.8,x,x,x,-1,-1.0,1.1
CC(=O)Nc1ccc(C(=O)Nc2nc(-c3ccccn3)cs2)cc1,x,1.2,19,4.9,3,16,-0.3,-1.5
Cc1ccc(C(=O)NCCCNC(=O)c2ccc(C)nc2)cc1,x,-1.1,-6,-0.7,5,-3,-0.1,-0.7
Cc1cccc(NC(=O)CSc2nnc(CN3CCOCC3)n2C)c1C,x,0.3,-13,-1.6,6,-6,0.6,2.9
CCNC(=S)N1CCCCC1CO (stereo not given),16%,-5.4,-4,0.0,-9,-9,0.4,1.3
COc1ccc(-c2cn3c(C)c(C(=O)N4CCCc5ccccc54)sc3n2)cc1,x,4.3,46,2.3,-11,13,0.1,2.8
CC(C)(C)OC(=O)C[C@H]1C/C=C\C[C@H](CC(=O)NCCO)C(=O)N[C@@H](c2ccccc2)COC1=O,x,-28,x,x,x,2,0.0,-6.0
CCC(=O)N1CC2(c3ccccc3)CN(C(=O)CC)CC(c3ccccc3)(C1)C2=O,x,-3.7,32,3.0,3,0,0.4,0.1
C/C(=N\NC(=O)c1nc2ccccn2c1C)c1cccc([N+](=O)[O-])c1,1%,1.3,-10,u,4,0,-0.7,6.9
CC(=O)c1cccc(OCc2cc(C(=O)N(C)CCc3ccccn3)no2)c1,x,1.4,-2,0.8,2,3,-0.6,1.9
O=C(NCC1OCCCN1S(=O)(=O)c1cc(F)ccc1F)C(=O)NC1CCCC1 (stereo not given),-5%,-8.1,5,-1.0,5,2,-0.6,3.8
O=C1c2cccc(OCC(=O)N3CCCc4ccccc43)c2CCN1Cc1cccnc1,-10%,-1.6,34,-1.2,41,19,-0.4,-2.4
CCN(CC(=O)Nc1ccc(OC)cc1)C(=O)Cc1coc2cc(C)c(C)cc12,-14%,0.7,x,x,x,-6,0.4,56*
CCCCn1c(-c2ccc(OC)cc2)nc2c(=O)n(C)c(=O)[nH]c21,-7%,-1.9,-1,1.8,8,-10,0.0,0.0
CN(c1ccc(OCC(=O)N2CCCC2)cc1)S(=O)(=O)c1ccc(Cl)cc1,0%,2.0,x,x,x,-3,-1.0,6.0

Carrying on.
Compound,Vif A3G,MLL AF4-AF9 inh,T cruzi repl,RanGTP-Impb inh,Calb FLC,Beta cell apopt,A1 inh,LANA-H2B inh
Cc1ccc(CNC(=O)C2CCN(S(=O)(=O)c3cnc[nH]3)CC2)cc1,15%,x,-1,-1.9,4,1,-0.4,1.9
CCOC(=O)C1(CC2CC2)CCN(Cc2cnc(-c3ccccc3C)nc2)CC1,3%,1.2,6,-1.1,-8,-1,1.9,2.8
Cc1ccc(S(=O)(=O)N2CCCCC2)cc1NC(=O)CN1C(=O)CN(C)C1=O,15%,-0.9,5,-0.6,-3,2,0.3,2.0
O=C(Nc1nnc(-c2ccco2)o1)C1CCCCC1,1%,5.2,-9,-2.3,4,-2,-0.1,-1.7
Cc1ccc2cc3c(N)[nH]nc3nc2c1,x,-3.1,19,1.0,17,x,0.8,6.1
O=C(N/N=C/c1cccc(Cl)c1Cl)Nc1ccccc1,0%,3.7,1,2.6,10,-7,0.0,1.4
CCN1C(=O)C(CC(=O)Nc2ccc(Cl)cc2)N(NC(=O)c2ccncc2)C1=S (stereo not given),10%,2.1,-3,-2.9,8,-4,1.0,-1.1
CCCOc1ccc(/C=N/NC(=O)CN2CCCCC2)cc1,0%,-1.9,-11,1.3,-8,-3,0.6,-1.0
CC(C)/C=C/CN1CCN(CCCc2ccccc2)C(CCO)C1 (stereo not given),x,1.1,7,4.5,-4,-11,0.8,2.2
Cc1sc(NC(=O)CS(=O)(=O)c2ccccc2)c(C#N)c1C,7%,-2.3,-3,0.5,23,5,1.0,4.6
COc1cc(OC)cc(-c2cc3nc(C)c(CCC(=O)NC(C)CCc4ccco4)c(C)n3n2)c1 (stereo not given),-8%&-12%,x,65*,-0.6,8,6,0.5,-6.2
CCc1ccc(NC(=O)CN(c2ccccc2)S(=O)(=O)N(C)C)cc1,5%,0.8,10,-0.7,-28,4,0.3,4.8
Cc1ccc2[nH]c(=O)c(CN(Cc3cccs3)Cc3nnnn3Cc3ccccc3)cc2c1,67%&-1%,6.6,32,-2.8,1,-8,0.6,1.3
Cc1ccc(S(=O)(=O)NCC(=O)Nc2cccnc2)cc1C,-7%,-1.7,x,x,x,-8,1.4,-1.6

Compound activity from PubChem.

Outcome played no part in choosing rows. About 4.3% of those tested had a hit in this group.
